Cruzain inh Det = qHTS Assay for Promiscuous and Specific Inhibitors of Cruzain (with detergent); purified cruzain, Z-FR-AMC fluorescence, 0.01% Triton; Cruzipain (Trypanosoma cruzi), P25779; hit rate 0.43% among 200,000; AID 1478, 2009; Potency, µM, for inactives: max response, negative = inhibition, most hits filed as inhibitors;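 further: plate controls were neutral wells for no effect and buffer without enzyme for full effect; nearly all actives have a fitted effect of over 40% in size; top concentration of the series not given in the record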
Target sequence (P25779 123-467 limits assumed): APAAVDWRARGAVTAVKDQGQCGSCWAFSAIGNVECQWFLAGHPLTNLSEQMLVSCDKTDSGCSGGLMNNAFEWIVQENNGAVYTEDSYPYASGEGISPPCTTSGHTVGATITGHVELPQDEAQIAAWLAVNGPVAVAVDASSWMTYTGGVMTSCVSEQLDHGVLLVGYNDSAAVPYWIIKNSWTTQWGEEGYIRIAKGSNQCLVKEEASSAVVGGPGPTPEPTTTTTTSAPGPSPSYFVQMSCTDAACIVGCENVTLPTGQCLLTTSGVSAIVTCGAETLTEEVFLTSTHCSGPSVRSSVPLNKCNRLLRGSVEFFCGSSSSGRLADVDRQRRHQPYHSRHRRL
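Sodium acetate buffer (100 mM, pH 5.5) containing 5 mM DTT and 0.01% Triton X-100 hosted 1.5 nM cruzain and test compound for 15 min at room temperature. Cleavage of 2 uM Z-FR-AMC was then tracked by fluorescence.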
Cruzain noTriton = qHTS Assay for Promiscuous and Specific Inhibitors of Cruzain (without detergent); Potency, µM, without a hit: max response, negative = inhibition, usual class: inhibitors; AID 1476, 2009; purified cruzain, Z-FR-AMC fluorescence, no detergent; hit rate 2.3% among 200,000;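 further: plate controls were enzyme without inhibitor for no effect and buffer without enzyme for full effect; nearly all actives have a fitted effect of over 40% in size; top concentration of the series not given in the record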
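Purified cruzain at 1.5 nM, pre-incubated 15 min with compound at room temperature in 100 mM sodium acetate pH 5.5, 5 mM DTT, 0.00005% Triton X-100. Reaction started with 2 uM Z-FR-AMC; AMC fluorescence increase over 60 s gives rate.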
RE007 growth inh = qHTS Assay for Inhibitors of the HIV-1 protein Vpr | S. pombe RE007 Vpr strain, BacTiter-Glo ATP luminescence, 24 h; control for the full effect not named in the record | Potency, µM (titrated, usually from 92.2 µM), inactives show at the top dose activity change, negative = less growth | hit rate 0.21% among 360,000 | AID 651644, 2012; active = well fitted falling curve with a large enough effect; inconclusive = small, poorly fitted or top-dose-only effect; inactive = no such curve, though single readings can be large or run the other way;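 further: on the % scale 0 is the no-effect control and ±100 the full control effect; nearly all actives have a fitted effect of over 50% in size; the assay follows cell death caused by Vpr and the record does not say whether a fall means rescue or toxicity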
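Fission yeast strain RE007, carrying one chromosomally integrated HIV-1 vpr copy, was seeded at OD 0.01 in PMG+AL medium with 23 nL pinned compound. After 24 h at 30 °C and 99% humidity, viability was read by BacTiter-Glo luminescence.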
SARS PLP yeast = qHTS of Yeast-based Assay for SARS-CoV PLP | S. cerevisiae expressing SARS-CoV PLpro, growth rescue; control for the full effect not named in the record | Potency, µM (doses to about 32.9 µM), for the others: at the top dose activity, positive = growth rescue | hit rate 0.19% among 330,000 | AID 485353, 2010; active means well fitted rising curve with a large enough effect; inconclusive means small, poorly fitted or top-dose-only effect; inactive means no such curve, though single readings can be large or run the other way; further: 0% is about no effect; nearly all actives have a fitted effect of over 55% in size; growth read by luminescence after 48 h
NS1 inh = qHTS Assay for Inhibitors of Influenza NS1 Protein Function; AID 2326, 2010; hit rate 0.4% among 270,000; Potency, µM (highest dose often 46.1 µM), for the others: at the highest dose activity, positive = more growth; S. cerevisiae slowed by influenza A NS1, growth recovery by OD600; active means well fitted rising curve with a large enough effect; inconclusive means small, poorly fitted or top-dose-only effect; inactive means no such curve, though single readings can be large or run the other way; further: nearly all actives have a fitted effect of over 50% in size
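Recovery from NS1-induced slow growth read by OD600 in budding yeast switched to galactose assay medium (pH 6.0, -URA) at 1:100 dilution. Compound 23 nl per well; the matching strain lacking NS1 serves as control.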
Marburg entry inh = qHTS for inhibitors of binding or entry into cells for Marburg Virus. Marburg virus pseudotyped entry inhibition, cell reporter; control for the full effect not named in the record; about a third of the inactives were read at about 46 µM. Potency, µM (top dose mostly 37.8 µM), inactives show top-dose activity change, negative = inhibition, hits mostly inhibitors. hit rate 1.8% among 300,000; active = well fitted inhibition curve with a large enough effect; inconclusive = small, poorly fitted or top-dose-only effect, or effect the other way; inactive = flat fitted curve, though single readings scatter; tested in HEK293 cells; about a fifth of its hits are not listed in these tables; further: on the % scale 0 is the no-effect control and ±100 the full control effect; luciferase read-out
Lassa entry inh = qHTS for Inhibitors of binding or entry into cells for Lassa Virus. Lassa virus pseudotype entry inhibition, cell reporter; control for the full effect not named in the record. Potency, µM (series often up to 37.9 µM), without a hit: at the highest dose activity change, negative = inhibition, actives largely listed as inhibitors. hit rate 1.2% among 300,000. AID 540256, 2011; active means well fitted inhibition curve with a large enough effect; inconclusive means small, poorly fitted or top-dose-only effect, or effect the other way; inactive means flat fitted curve, though single readings scatter; tested in HEK293 cells; further: on the % scale 0 is the no-effect control and ±100 the full control effect; nearly all actives have a fitted effect of over 50% in size; luciferase read-out
2A StopGo = High Throughput Screening for Foot and Mouth Disease Virus Antivirals; human cells with a luciferase reporter of 2A StopGo recoding; control for the full effect not named in the record; hit rate 1.2% among 410,000; AID 1159524, 2015; Potency, µM (doses to about 57.9 µM), inactives show at the highest dose signal change, negative = less light; active = well fitted falling curve with a large enough effect; inconclusive = small, poorly fitted or top-dose-only effect; inactive = no such curve, though single readings can be large or run the other way; tested in HEK293T cells; further: on the % scale 0 is the no-effect control and ±100 the full control effect; nearly all actives have a fitted effect of over 45% in size; luciferase light after 4 h
* = called active by the depositor; u = inconclusive; x = no result given; & = joins results of further samples; [ ] = remark or other dose. Unless noted, the call rests on the fitted dose curve; in most records, active means well fitted curve in the direction sought with a large enough effect; inconclusive means small, poorly fitted or top-dose-only effect, or another doubt; inactive means no such curve, though single readings can be large; an effect the other way counts as inactive or inconclusive. Potency means the concentration at half of the fitted maximal effect. Random draw from the library; any-hit rate near 4.8%.

SMILES | Cruzain inh Det | Cruzain noTriton | RE007 growth inh | SARS PLP yeast | NS1 inh | Marburg entry inh | Lassa entry inh | 2A StopGo
COc1ccc(NC(=O)CSc2nnc(NC(=O)Nc3ccccc3)s2)cc1OC | -2.5% | 9.3% | x | x | x | x | u | 14.3%
CCOP1(=O)C=C(C(C)(C)C)OC1c1ccc(F)cc1 (stereo not drawn) | 2.7% | 2.1% | 4.5% | 0.1% | 8.2% | 0.1% | u | 2.9%
COc1ccccc1OCC(=O)Nc1nnc2n1CCS2 | 0.4% | u | x | x | x | x | 0.0%[46.1 µM] | -9.8%
CCc1cccc(NC(=O)CN2C=NS(=O)(=O)c3ccccc32)c1 | 1.2% | 4.3% | x | x | x | x | -4.3%[46.1 µM] | -10.5%
CCc1cccc(NC(=O)C2CCCN(c3ncnc4onc(-c5ccc(F)cc5)c34)C2)c1 (stereo not drawn) | -9.0% | 5.9% | x | x | x | x | -9.5%[46.1 µM] | -26.5%
Cc1ccc(NC(NC(=O)c2ccccn2)C(Cl)(Cl)Cl)cc1 (stereo not drawn) | 1.3% | -7.1% | -7.8% | -1.8% | 3.7% | u | -7.1% | -17.9%
NC(=O)C1(N2CCCCC2)CCN(Cc2ccccc2Cl)CC1 | 0.4% | 1.8% | 6.4% | 8.5% | -1.3% | -0.9% | -3.4% | x
CCCCCc1nnc(NC(=O)CN2C(=O)C3CCCCC3C2=O)s1 (stereo not drawn) | x | x | 19.2% | -7.0% | 3.4% | x | x | -11.5%
O=C(NNC1=NCCC1)c1cccc(S(=O)(=O)N2CCCC2)c1 | 2.3% | -6.0% | -14.5% | 21.0% | 2.8% | 4.7%[46.1 µM] | -3.4%[46.1 µM] | -13.5%
Cc1cc(C)c(NC(=O)CS(=O)CC(=O)NCCCc2ccccc2)c(C)c1 (stereo not drawn) | 4.2% | 2.1% | 7.6% | 4.5% | 5.1% | -18.4% | -10.3% | x
Cn1c(SCC(=O)N2CCc3ccccc3C2)nnc1-c1ccncc1 | -1.6% | -11.4% | -6.4% | 5.2% | -2.9% | u | u | 3.8%
O=C1C=C(NCc2ccc(Cl)cc2Cl)C2(CCCCC2)O1 | 1.4% | 0.7% | -9.3% | 2.5% | -2.3% | u | -2.7% | x
Brc1cc2c(cc1C1Nc3ccccc3C3C=CCC31)OCO2 (stereo not drawn) | -2.6% | u | x | -42.9% | 21.8% | u | -2.0% | 0.0%
CN(C)CCNC(=O)Cn1nc(-c2ccc(Cl)cc2)ccc1=O | -0.5% | -4.5% | -11.2% | 1.3% | -6.2% | 0.4% | -14.5% | -2.3%
Cc1cccc2cc(CN(CCCN3CCOCC3)Cc3nnnn3C(C)(C)C)c(=O)[nH]c12 | -1.8% | 4.2% | 8.9% | 1.9% | 1.3% | -24.1% | 1.7% | x
Cc1ccc(C)c(NC(=O)Nc2csc3c2CCCC3)c1 | -0.2% | -2.0% | x | x | x | u | x | -15.6%
O=S(=O)(N/N=C\c1ccc2c(c1)OCO2)c1ccc(F)cc1 | x | x | 11.2% | 0.8% | -5.9% | 0.9%[46.1 µM] | 0.3%[46.1 µM] | 16.4%
C#CCn1c(=NC(=O)c2ccccc2[N+](=O)[O-])sc2cc(S(C)(=O)=O)ccc21 | 0.6% | u | 3.7% | 5.7% | 4.3% | u | 2.5% | -7.5%
O=C(N1CCC(O)(c2cccnc2)CC1)C12CC3CC(CC(C3)C1)C2 | 1.3% | 3.9% | 7.9% | 2.9% | -9.7% | -0.8%[46.1 µM] | -13.6% | -22.4%
COc1cc(/C=C2\SC(=Nc3ccc(Cl)c(C(=O)O)c3)NC2=O)c(Br)c(Br)c1O | x | x | 7.4% | -4.6% | -5.9% | 4.8%&4.8%[46.1 µM] | -9.1%[46.1 µM] | 4.6%
COc1ccc(NCC(=O)NN=C2CCS(=O)(=O)c3ccc(F)cc32)cc1 | x | x | 2.3% | -0.7% | x | 8.3% | u | 17.4%
CCc1c(C)sc(NC(=O)c2ccccc2[N+](=O)[O-])c1C(N)=O | -10.6% | 6.3% | -7.5% | -8.5% | -3.5% | 31.5% | 2.5% | 22.3%
COc1cccc(C(=O)Nc2ccc(NC(=O)C3C4C=CC(C4)C3C(=O)O)cc2)c1 (stereo not drawn) | x | x | -10.6% | -3.7% | 0.3% | u | -28.8% | u
Cn1nnc(C(O)CN2CCOCC2)n1 (stereo not drawn) | 8.7% | 12.0% | 15.8% | -1.4% | 5.3% | 12.5% | -9.4% | 13.7%
COc1ccc([N+](=O)[O-])cc1N(CC(O)CN1CCCCC1)S(=O)(=O)c1ccccc1 (stereo not drawn) | x | x | -1.7% | 1.1% | 1.0% | u | -1.3% | 1.9%
O=C(Nc1ccc2nc(SCC(=O)N3CCCc4ccccc43)sc2c1)c1ccc(Cl)cc1 | -6.6% | 10µM* | x | x | x | -24.5%[46.1 µM] | -19.7%[46.1 µM] | -9.7%
O=C(C1=C(O)C(=O)N(CCN2CCOCC2)C1c1cccc(F)c1)c1cc2ccccc2o1 (stereo not drawn) | x | x | 4.3% | 0.3% | 6.5% | x | x | -18.4%
Brc1ccccc1-c1csnn1 | -2.9% | -1.1% | 2.1% | 2.7% | 12.7% | u | -28.4% | 6.5%
Cc1ccc(C)c(C(=O)CCC(=O)Nc2cccnc2)c1 | -1.6% | 9.2% | 4.2% | -1.8% | -4.8% | 1.8% | 9.3% | 8.8%
COc1cc(OC)c(C(=O)NC2CCCCCC2)cc1OC | 5.7% | 6.7% | 0.9% | -3.8% | -13.4% | -9.6%[46.1 µM] | 1.6% | -14.6%
CC(C)Nc1ncnc2c1nnn2Cc1ccccc1 | 1.7% | -1.6% | 12.0% | 15.9% | u | 0.0% | 10.9% | 16.4%
O=C(OCC(=O)N1CCN(c2ccccc2)CC1)c1ccc(O)cc1O | x | x | 7.8% | 0.9% | 14.1% | u | u | 7.7%
O=C(NC(=S)NNC(=O)c1ccccc1O)c1ccccc1 | x | x | -0.6% | 4.3% | -48.5% | -13.1%[46.1 µM] | -12.6%[46.1 µM] | 0.0%
Cn1c(-c2c(N)n(-c3ccccc3)c3nc4ccccc4nc23)nc2ccccc21 | -6.9% | 7.8% | x | 0.4% | 16.1% | 16.2% | 6.8% | 34.9%[activator]
OCCNc1nc(C2CC2)nc2c1nnn2Cc1ccccc1Cl | -4.1% | u | 11.0% | 2.9% | -23.4% | -27.9% | 5.4% | -26.7%
Cc1cc(C(F)F)n2nc(C(=O)Nc3ccc(F)cc3F)nc2n1 | -1.1% | -0.4% | 4.8% | -0.6% | -2.3% | 10.2% | -18.3% | -11.9%
N=C1C(c2ccccc2)=C(O)CN1c1cccc(S(=O)(=O)N2CCOCC2)c1 | x | x | 3.2% | -0.2% | 3.1% | x | x | -23.6%
N#Cc1cccc(-n2nnnc2-c2ccccn2)c1 | -3.6% | -5.4% | 17.2% | 9.8% | -13.7% | 17.1%[46.1 µM] | -2.5% | 28.8%
CCOC(=O)CNC(=O)Cn1cnc2c(nnn2-c2ccc(C)cc2)c1=O | 3.1% | -5.4% | -21.5% | 5.6% | 6.4% | u | 4.6% | -12.6%
Cn1c(=O)n(C)c2cc(N3CCOCC3)c(NC(=O)c3ccc(F)cc3)cc21 | x | x | 3.2% | -1.3% | 2.1% | 14.2%[46.1 µM] | 0.8%[46.1 µM] | 0.0%
Cc1csc2nc(O)c(C(=O)NCCCN3CCCC3=O)c(=O)n12 | x | x | 4.4% | 0.1% | x | 2.9%[46.1 µM] | 6.1% | 0.5%
Cc1c(NC(=O)CSc2ncnc3ccccc23)c(=O)n(-c2ccccc2)n1C | x | x | -9.7% | 0.1% | x | -12.6% | -2.3% | -18.8%
Cc1ccc(S(=O)(=O)N2CCCCC2)cc1C(=O)N1C(C)CCCC1C (stereo not drawn) | x | x | 15.3% | 3.1% | x | u | -18.8% | -3.0%
COc1ccc(C(=O)C2CCCN(Cc3cccc4c3OCO4)C2)cc1OC (stereo not drawn) | x | x | -12.4% | 0.3% | -1.2% | x | x | -12.2%
COc1ccc(S(=O)(=O)N2CCC(C(=O)NCCc3ccc4c(c3)OCO4)CC2)cc1 | -4.0% | 9.7% | 5.4% | -1.3% | -13.4% | -19.6% | -22.8% | -28.4%
O=C(N/N=C1\C(=O)c2cccc3cccc1c23)c1ccc(O)cc1 | x | x | 8.8% | 1.9% | 4.1% | u | -24.6% | 9.6%
COc1cccc(CSc2ccc(S(=O)(=O)N3CCOCC3)cc2C(=O)NCC2CCCO2)c1OC (stereo not drawn) | x | x | -15.4% | 2.2% | x | -11.0%[46.1 µM] | 3.7% | 12.2%
CCOc1cccc(CN2CCC(CCC(=O)NC3CC3)CC2)c1O | x | x | -20.6% | -3.2% | -3.1% | x | x | -0.2%
O=C(CSc1ccc(-c2ccccn2)nn1)c1ccccc1 | x | x | -24.0% | u | x | u | u | 16.6%
Cc1ccc(C2CC(c3cccs3)=NN2S(=O)(=O)c2ccc(C)cc2)cc1 (stereo not drawn) | -3.3% | u | 3.5% | -41.0% | -6.7% | 6.2% | -12.6% | 44.1%[activator]
CC(=O)c1ccc(N2CCN(C(=O)CCC(=O)Nc3ccc4nc(N5CCCCC5)cc(C)c4c3)CC2)cc1 | -6.9% | -2.2% | x | x | x | 26.1%[46.1 µM] | 20.0%[46.1 µM] | 0.0%
CCCCCC(=O)N/N=C/c1ccc([N+](=O)[O-])o1 | x | x | -22.1% | -0.6% | x | u | u | -11.3%
CCCC12CN3CCN(CC(C3)/C1=N\NC(=O)c1ccncc1)C2 | x | x | -17.2% | -3.4% | x | 23.0%[46.1 µM] | 6.6% | -1.4%

Bioassay records from PubChem BioAssay.
